# LASV entry inh – Lassa virus entry inhibition; Lassa virus pseudotype entry inhibition, cell reporter; control for the full effect not named in the record; Potency, µM (highest dose often 37.9 µM), for inactives: at the highest dose activity change, negative = inhibition, most hits filed as inhibitors; hit rate 1.2% among 300,000; active means well fitted inhibition curve with a large enough effect; inconclusive means small, poorly fitted or top-dose-only effect, or effect the other way; inactive means flat fitted curve, though single readings scatter; tested in HEK293 cells; also: % is scaled to controls: 0 for no effect and ±100 for the full control effect; nearly all actives have a fitted effect of over 50% in size; luciferase read-out
# MARV entry inh – Marburg virus entry inhibition; Marburg virus pseudotyped entry inhibition, cell reporter; control for the full effect not named in the record; about a third of the inactives were read at about 46 µM; Potency, µM (highest dose often 37.8 µM), without a hit: top-dose activity change, negative = inhibition, actives largely listed as inhibitors; hit rate 1.8% among 300,000; AID 540276; active = well fitted inhibition curve with a large enough effect; inconclusive = small, poorly fitted or top-dose-only effect, or effect the other way; inactive = flat fitted curve, though single readings scatter; tested in HEK293 cells; about a fifth of its hits are not listed in these tables; also: % is scaled to controls: 0 for no effect and ±100 for the full control effect; luciferase read-out
# Cruzain inh noDet – inhibitors of Trypanosoma cruzi cruzain without detergent. AID 1476. Potency, µM, inactives show max response, negative = inhibition, actives largely listed as inhibitors. purified cruzain, Z-FR-AMC fluorescence, no detergent. P25779. hit rate 2.3% among 200,000; active = well fitted curve in the direction sought with a large enough effect; inconclusive = small, poorly fitted or top-dose-only effect, or another doubt; inactive = no such curve, though single readings can be large; an effect the other way counts as inactive or inconclusive;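 also: plate controls were enzyme without inhibitor for no effect and buffer without enzyme for full effect; nearly all actives have a fitted effect of over 40% in size; top concentration of the series not given in the record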
# Target sequence (P25779 123-467 limits assumed): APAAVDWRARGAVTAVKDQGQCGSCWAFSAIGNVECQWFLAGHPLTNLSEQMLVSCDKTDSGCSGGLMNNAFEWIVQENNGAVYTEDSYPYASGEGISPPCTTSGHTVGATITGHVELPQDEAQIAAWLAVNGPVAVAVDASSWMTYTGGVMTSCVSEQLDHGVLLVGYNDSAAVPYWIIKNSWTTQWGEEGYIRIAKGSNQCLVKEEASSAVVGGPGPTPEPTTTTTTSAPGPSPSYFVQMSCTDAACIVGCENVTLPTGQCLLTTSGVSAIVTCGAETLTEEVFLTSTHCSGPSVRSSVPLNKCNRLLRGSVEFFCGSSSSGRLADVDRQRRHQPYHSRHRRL
#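 Detergent-free condition (0.00005% Triton X-100) in acetate buffer pH 5.5 with DTT. 1.5 nM enzyme and compound were pre-mixed 15 min, then 2 uM Z-FR-AMC substrate added; reaction progress from fluorescence change between first and third reads (60 s).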
# RE007 growth inh – less growth of the S. pombe RE007 Vpr strain; AID 651644; hit rate 0.21% among 360,000; Potency, µM (titrated, usually from 92.2 µM), for inactives: at the highest dose activity change, negative = less growth; S. pombe RE007 Vpr strain, BacTiter-Glo ATP luminescence, 24 h; control for the full effect not named in the record; active = well fitted falling curve with a large enough effect; inconclusive = small, poorly fitted or top-dose-only effect; inactive = no such curve, though single readings can be large or run the other way;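 also: % is scaled to controls: 0 for no effect and ±100 for the full control effect; nearly all actives have a fitted effect of over 50% in size; the assay follows cell death caused by Vpr and the record does not say whether a fall means rescue or toxicity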
#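 Fission yeast RE007 carrying one integrated HIV-1 vpr copy, seeded at OD 0.01 in PMG+AL medium with 23 nL pinned compound. Grown 24 h at 30 degrees; viability read by BacTiter-Glo luminescence after 5 min.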
# Cruzain Triton – cruzain (T. cruzi) inhibition with detergent | Potency, µM, inactives show max response, negative = inhibition, actives largely listed as inhibitors | hit rate 0.43% among 200,000 | AID 1478 | purified cruzain, Z-FR-AMC fluorescence, 0.01% Triton; active = well fitted curve in the direction sought with a large enough effect; inconclusive = small, poorly fitted or top-dose-only effect, or another doubt; inactive = no such curve, though single readings can be large; an effect the other way counts as inactive or inconclusive;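 also: plate controls were neutral wells for no effect and buffer without enzyme for full effect; nearly all actives have a fitted effect of over 40% in size; top concentration of the series not given in the record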
#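 Detergent-containing arm of a paired screen for aggregation-based inhibition: 0.01% Triton X-100 present. Cruzain at 1.5 nM cleaved 2 uM Z-FR-AMC at pH 5.5 with 5 mM DTT; AMC fluorescence gain over 60 s measured activity.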
# SARS PLpro yeast – inhibitors of SARS-CoV papain-like protease in yeast; AID 485353; hit rate 0.19% among 330,000; Potency, µM (highest dose often 32.9 µM), inactives show top-dose activity, positive = growth rescue; S. cerevisiae expressing SARS-CoV PLpro, growth rescue; control for the full effect not named in the record; also: 0% is about no effect; nearly all actives have a fitted effect of over 55% in size; growth read by luminescence after 48 h
# NS1 inh – inhibitors of influenza NS1 protein function. S. cerevisiae slowed by influenza A NS1, growth recovery by OD600. Potency, µM (doses to about 46.1 µM), for the others: at the highest dose activity, positive = more growth. hit rate 0.4% among 270,000; also: actives are rising curves; nearly all actives have a fitted effect of over 50% in size
#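 OD600 was taken as the measure of yeast growth restored by compound in an NS1-expressing S. cerevisiae strain. Cells had been washed out of glucose medium and diluted 1:100 into galactose -URA medium, pH 6.0.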
# StopGo reporter – FMDV 2A StopGo reporter, luciferase signal; human cells with a luciferase reporter of 2A StopGo recoding; control for the full effect not named in the record; Potency, µM (highest dose often 57.9 µM), for the others: top-dose signal change, negative = less light; hit rate 1.2% among 410,000; active = well fitted falling curve with a large enough effect; inconclusive = small, poorly fitted or top-dose-only effect; inactive = no such curve, though single readings can be large or run the other way; tested in HEK293T cells; also: % is scaled to controls: 0 for no effect and ±100 for the full control effect; nearly all actives have a fitted effect of over 45% in size; luciferase light after 4 h
# Active calls of the source: *; ? = inconclusive; nt = not tested or not shown; & = joins results of further samples; [ ] = another dose, or the depositor's remark. Unless noted, calls follow the shape of the dose curve; as a rule, active means well fitted rising curve with a large enough effect; inconclusive means small, poorly fitted or top-dose-only effect; inactive means no such curve, though single readings can be large or run the other way. Potency is read from the fitted curve at half-maximal effect.
canonical_smiles,LASV entry inh,MARV entry inh,Cruzain inh noDet,RE007 growth inh,Cruzain Triton,SARS PLpro yeast,NS1 inh,StopGo reporter
Cc1nc2c(C)cccn2c1C(=O)N/N=C/c1ccccc1[N+](=O)[O-],8%[46.1 µM],9%[46.1 µM],nt,-12%,nt,-1%,3%,-29%
CC(C)Cc1nn2c(=O)cc(COC(=O)c3cccc(NC(=O)CCc4ccccc4)c3)nc2s1,12%[46.1 µM],nt,-12%,nt,-3.0%,nt,nt,-1%
COc1ccc(CN2CCNC(=O)C2CC(=O)N(C)Cc2nccn2C)cc1OC (stereo not drawn),?,?,nt,9%,nt,2%,1%,0%
COc1cccc(C2=Nn3c(nnc3-c3ccccc3O)SC2)c1,-15%,-27%,?,-3%,1.0%,-7%,3%,3%
COc1ccc(-c2cc(=Nc3ccc(C(=O)O)cc3)c3cc(C)ccc3o2)cc1,?,?,nt,17%,nt,0%,nt,30%[activator]
CC[C@]12c3[nH]c4ccc(OC)cc4c3CCN1C(=O)C(CC(=O)NCCc1ccccn1)C[C@@H]2C(=O)N1CCN(C(=O)c2ccco2)CC1 (stereo partly drawn),nt,2%,nt,-7%,nt,2%,nt,-6%
NC(=NC1CCCCC1)c1ccc(Cl)cc1,-6%[46.1 µM],?,nt,-8%,nt,2%,5%,1.4µM*
COC(=O)Cn1c(=NC(=O)c2ccc(Cl)s2)sc2cc(C)ccc21,8%,22%,20µM*,-5%,22µM*,-11%,?,25%
Cc1ccc(NC(=O)C2(c3ccccc3)CC2(Cl)Cl)cc1C (stereo not drawn),-5%,-17%,-2%,4%,0.4%,-26%,-32%,4%
COc1ccc(C(=O)CCc2ccccc2)c(O)c1,9%[46.1 µM],5%[46.1 µM],nt,-6%,nt,nt,nt,31%[activator]
Cc1nc(SCC(=O)N2CCOCC2)c2ccsc2n1,3%,4%,9%,-5%,-7.1%,3%,-2%,-12%
CC(C)(C)c1cc(CN(CCO)CCO)c(O)c(C(C)(C)C)c1,-13%[46.1 µM],?,nt,11%,nt,-1%,1%,-2%
O=c1c2cnn(-c3ccccc3)c2nc(-c2cccs2)n1-c1ccc(Cl)cc1,?,-10%,?,-10%,-4.7%,-1%,3%,?
CCC/C(=N\O)c1c[nH]c2ccccc12,?,11%,-2%,3%,-2.9%,-3%,-68%,5%
COC(=O)c1ccccc1NC(=O)NCc1c(C)nn(C)c1C,0%,?,nt,-12%,nt,3%,nt,-19%
COc1ccc(CC(=O)O/N=C(\N)c2ccccn2)cc1OC,?,?,nt,-3%,nt,11%,10%,7%
CC(=O)c1ccc(NC(=S)N(CCCN(C)C)Cc2ccccc2)cc1,20%[46.1 µM],?,nt,-9%,nt,-1%,-1%,15%
CCN(CC)CCn1c(N)nc2ccccc21,4%,?,nt,-4%,nt,-4%,-4%,1%
Cc1coc(=N)n1CC(=O)c1ccc(Cl)cc1,11%,?,nt,-6%,nt,-1%,5%,16%
COc1ccccc1Cn1nnc2c(=O)[nH]c(C3CCN(C(=O)c4ccccc4Cl)CC3)nc21,?,0%&0%,?,-1%,-0.8%,-6%,2%,-25%
COc1ccc(-c2c3c(nc4sc(C(=O)Nc5cc(C)on5)c(N)c24)CCC3)cc1,?,-28%,-3%,-5%,-7.7%,0%,13%,nt
COc1ccccc1CNC(=O)C(C)NS(=O)(=O)c1ccc(C)cc1 (stereo not drawn),-3%,3%,4%,1%,-0.6%,0%,0%,11%
CN1CCN(C(=O)c2cc3nc(-c4ccc(F)cc4)cc(C(F)(F)F)n3n2)CC1,0%,?,-3%,2%,1.1%,5%,0%,0%
CCC(C)c1ccccc1NC(=O)c1[nH]c(C)c(C(C)=O)c1C (stereo not drawn),4%[46.1 µM],-16%[46.1 µM],nt,-4%,nt,11%,-2%,-2%
CC(C)c1ccc(C2CC(=O)Nc3cc4c(cc32)OCCO4)cc1 (stereo not drawn),?,?,16%,nt,-11%,nt,nt,?
CCOC(=O)c1cc(-c2ccccc2)n(CC(=O)Nc2ccc(OC)cc2)c1C,?,-29%,0%,6%,-0.5%,0%,?,7%
COc1ccc(C(=O)Oc2cc(/C=N/NS(=O)(=O)c3ccc(C)cc3)ccc2OC)cc1,-18%,13%,?,39%,0.8%,-1%,14%,48%[activator]
Cc1ccc(Cl)cc1NC(=O)COC(=O)c1ccccc1O,nt,nt,nt,8%,nt,-1%,4%,-1%
C=CCOc1ccc2nnc(C)n2n1,-3%,24%,-8%,-4%,0.5%,-8%,4%,-6%
CCCC(=O)Nc1nnc(-c2ccc(Cl)s2)o1,nt,nt,2%,-2%,0.8%,6%,-12%,45%[activator]

# Part of the list above, with values under each structure.
# Order of results – LASV entry inh | MARV entry inh | Cruzain inh noDet | RE007 growth inh | Cruzain Triton | SARS PLpro yeast | NS1 inh | StopGo reporter
Cc1nc2c(C)cccn2c1C(=O)N/N=C/c1ccccc1[N+](=O)[O-]
    8%[46.1 µM] | 9%[46.1 µM] | nt | -12% | nt | -1% | 3% | -29%
CC(C)Cc1nn2c(=O)cc(COC(=O)c3cccc(NC(=O)CCc4ccccc4)c3)nc2s1
    12%[46.1 µM] | nt | -12% | nt | -3.0% | nt | nt | -1%
COc1ccc(CN2CCNC(=O)C2CC(=O)N(C)Cc2nccn2C)cc1OC (stereo not drawn)
    ? | ? | nt | 9% | nt | 2% | 1% | 0%
COc1cccc(C2=Nn3c(nnc3-c3ccccc3O)SC2)c1
    -15% | -27% | ? | -3% | 1.0% | -7% | 3% | 3%
COc1ccc(-c2cc(=Nc3ccc(C(=O)O)cc3)c3cc(C)ccc3o2)cc1
    ? | ? | nt | 17% | nt | 0% | nt | 30%[activator]
CC[C@]12c3[nH]c4ccc(OC)cc4c3CCN1C(=O)C(CC(=O)NCCc1ccccn1)C[C@@H]2C(=O)N1CCN(C(=O)c2ccco2)CC1 (stereo partly drawn)
    nt | 2% | nt | -7% | nt | 2% | nt | -6%
NC(=NC1CCCCC1)c1ccc(Cl)cc1
    -6%[46.1 µM] | ? | nt | -8% | nt | 2% | 5% | 1.4µM*
COC(=O)Cn1c(=NC(=O)c2ccc(Cl)s2)sc2cc(C)ccc21
    8% | 22% | 20µM* | -5% | 22µM* | -11% | ? | 25%
Cc1ccc(NC(=O)C2(c3ccccc3)CC2(Cl)Cl)cc1C (stereo not drawn)
    -5% | -17% | -2% | 4% | 0.4% | -26% | -32% | 4%

# Following part.
canonical_smiles,LASV entry inh,MARV entry inh,Cruzain inh noDet,RE007 growth inh,Cruzain Triton,SARS PLpro yeast,NS1 inh,StopGo reporter
O=c1c2ccccc2ncn1CCCSc1ccccc1,0%,?,-2%,-10%,-0.1%,?,-44%,-54%
CC(C(=O)NC1CCCCC1)N1C(=O)c2cccc3cccc1c23 (stereo not drawn),3%[46.1 µM],?,nt,19%,nt,-7%,4%,-26%
COc1ccccc1N1C(=O)CC(N(O)c2ccccc2)C1=O (stereo not drawn),-3%,0%[14.2 µM],nt,5%,nt,1%,1%,-3%
O=C(CSc1nc2ccccc2o1)N/N=C/c1ccc(C(=O)O)cc1,-5%,8%[46.1 µM],nt,-18%,nt,0%,4%,-11%
COc1ccc(-c2nc3ccccc3c(=O)n2N)cc1,26%,1%,4%,18%,2.2%,4%,0%,13%
COc1cccc(OC)c1OCCCN1CCOCC1,-1%,-20%,-8%,20%,4.3%,7%,-4%,0%
COc1ccccc1NC(=O)c1cc(=O)[nH]c2ccccc12,12%,?,nt,3%,nt,-2%,5%,-9%
Nc1nc(-c2ccccc2)c(CCCNc2ccccc2)c(=O)[nH]1,-12%,-19%,nt,-3%,nt,nt,nt,-7%
CCN(Cc1cnn(C)c1)Cc1nc(Cc2ccccc2Cl)no1,22%[46.1 µM],-2%[46.1 µM],nt,-2%,nt,1%,-3%,-6%
O=C(Nc1ccc2oc(-c3cc(Br)ccc3Cl)nc2c1)c1cc2ccccc2o1,6%[46.1 µM],?,3%,nt,0.6%,nt,nt,-15%
CC(=O)Nc1cc(S(=O)(=O)Nc2ccccc2C)c(C)cc1C,8%,-18%[46.1 µM],-3%,7%,2.4%,-7%,-1%,22%
COc1cccc(-c2nnc(-c3ccccc3NC(=O)c3ccc(F)cc3F)o2)c1,-9%[46.1 µM],2%[46.1 µM],-6%,nt,0.6%,nt,nt,-19%
CC1CCc2c(C(=O)Nc3ccccn3)csc2C1 (stereo not drawn),nt,nt,nt,?,nt,-23%,-89%,1%
COCCCn1c(SCC(=O)Nc2nnc(C)s2)nnc1-c1ccoc1C,-7%,-11%[46.1 µM],-6%,15%,-2.7%,2%,0%,-14%
CC(=O)Nc1ccc(SCC(=O)O)cc1,3%[46.1 µM],?,nt,-9%,nt,-8%,nt,-14%
O=S(=O)(c1ccc2ccccc2c1)n1cnc2ccccc21,0%,?,8%,-4%,4.1%,0%,-10%,-19%
Cc1ccc(C(=O)O)cc1NC(=O)CCc1ccccc1,5%,0%[46.1 µM],nt,2%,nt,0%,1%,3%
CC/C(C)=C1\SC(N2CCN(C(C)=O)CC2)=NC1=O,4%,17%,6%,-12%,-0.5%,4%,-6%,-17%
Cc1cc(C)cc(N=C(NO)c2cccc([N+](=O)[O-])c2)c1,-16%,-4%[46.1 µM],1%,3%,-1.4%,-4%,-10%,?
CCOc1ccc(NC(=O)CN(C)C(=O)c2csc3c2CCCC3)cc1OCC,-18%,3%,nt,-19%,nt,2%,nt,-18%
NCC(=O)NNC(=O)OCC1c2ccccc2-c2ccccc21,18%[46.1 µM],30%[46.1 µM],nt,-23%,nt,-3%,6%,-18%
CC(C)CC(=O)N1CCN(Cc2cccc(Cl)c2)CC1,nt,nt,nt,13%,nt,0%,-8%,-11%

# Screening data from PubChem.
